# Vif TR-FRET: HIV-1 Vif–A3G interaction blockers – biochemical, TR-FRET, GST-Vif 1-94, biotin-A3G peptide, dose response retest, primary screen (AID 1117319) | inhibition, %; hits with a dose series show IC50 in µM | TR-FRET GST-Vif / biotin-A3G peptide binding; higher % means a stronger effect; test concentration not given here; strong numbers were not always called active | hit rate 0.57% among 260,000;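 active means above the screen mean plus three standard deviations and confirmed in dose response; inconclusive means results disagree or hit not tested in dose response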;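 further: Vif residues 1-94 fused to GST binding biotinylated APOBEC3G peptide 110-148; 0% = full assay without inhibitor and 100% = GST in place of GST-Vif; retest series ran down from 100 µM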
# RanGTP-Impb inh: disruptors of Ran-importin-beta complex formation – biochemical, FRET, CFP-Ran, YFP-importin-beta, homogeneous, primary screen; cell-free CFP-Ran/YFP-importin-beta FRET ratio; inhibition, % (no concentration beside the values); hit rate 1.1% among 300,000;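 active means most replicates above 15%; inconclusive means exactly half above 15%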;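 further: 0% = DMSO wells and 100% = Ran loaded with GDP instead of GTP; wells of about 40 µL received 100 nL stock; the first replicate is given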
# HNF4A DNA FP: change in binding of human HNF4 alpha to DNA; P41235; HNF4a-FITC DNA binding, fluorescence polarization, 1 h; activity change, % at 10 µM; hit rate 0.3% among 360,000; AID 1224865; in the data active means activity change above about 30%, passing the limit was not always enough;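 further: controls were the assay level and a saturating level of protein; the project sought stronger binding though the title names inhibitors; some compounds called inactive have numbers as strong as hits; positive values seem to mean higher polarization but the record does not say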
# LANA-H2B inh: blocks KSHV LANA binding to histone H2A/H2B | Q9QR71 | cell-free LANA-H2A/H2B peptide, fluorescence polarization | inhibition, % (concentration not given with the values) | hit rate 0.6% among 320,000 | AID 2629; in the data active means inhibition mostly above about 10%, no sharp cut-off; inactive means mostly below about 6.7%;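 further: stock transfer was 7.5 nL into about 10 µL; 0% = median of vehicle wells and 100% = median of positive control wells; one replicate is shown; the record names a cut of 25% in any replicate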
# Target sequence (Q9QR71 whole entry, looked up): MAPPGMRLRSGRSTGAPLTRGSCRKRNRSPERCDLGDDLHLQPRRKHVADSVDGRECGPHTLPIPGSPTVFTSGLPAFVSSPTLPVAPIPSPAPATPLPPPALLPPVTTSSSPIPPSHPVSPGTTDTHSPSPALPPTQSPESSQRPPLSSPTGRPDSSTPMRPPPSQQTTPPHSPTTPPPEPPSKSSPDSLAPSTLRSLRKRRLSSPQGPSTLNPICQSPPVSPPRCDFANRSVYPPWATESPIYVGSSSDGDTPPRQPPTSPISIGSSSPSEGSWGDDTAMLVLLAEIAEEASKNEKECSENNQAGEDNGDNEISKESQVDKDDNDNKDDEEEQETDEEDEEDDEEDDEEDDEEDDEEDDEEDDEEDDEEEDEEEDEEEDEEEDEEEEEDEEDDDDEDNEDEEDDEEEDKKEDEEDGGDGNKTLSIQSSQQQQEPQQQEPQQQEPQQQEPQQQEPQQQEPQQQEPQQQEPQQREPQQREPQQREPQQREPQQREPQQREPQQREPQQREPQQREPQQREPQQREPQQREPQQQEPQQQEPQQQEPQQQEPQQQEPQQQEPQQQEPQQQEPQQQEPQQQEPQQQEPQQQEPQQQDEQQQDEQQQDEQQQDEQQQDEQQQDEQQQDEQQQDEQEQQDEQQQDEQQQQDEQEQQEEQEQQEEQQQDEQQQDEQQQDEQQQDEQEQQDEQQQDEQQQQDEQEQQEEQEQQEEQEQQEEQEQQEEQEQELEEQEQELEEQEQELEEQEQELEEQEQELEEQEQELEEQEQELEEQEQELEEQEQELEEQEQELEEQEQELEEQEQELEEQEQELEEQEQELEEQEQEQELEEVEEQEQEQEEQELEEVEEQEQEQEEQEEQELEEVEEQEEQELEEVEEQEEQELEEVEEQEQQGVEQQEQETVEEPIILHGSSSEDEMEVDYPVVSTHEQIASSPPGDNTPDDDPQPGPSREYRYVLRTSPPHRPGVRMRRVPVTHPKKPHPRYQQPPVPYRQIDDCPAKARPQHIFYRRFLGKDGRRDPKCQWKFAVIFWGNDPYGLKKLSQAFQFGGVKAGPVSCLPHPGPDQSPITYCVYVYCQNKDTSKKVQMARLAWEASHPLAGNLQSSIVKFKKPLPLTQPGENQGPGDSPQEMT
# ALR H2O2 inh: blocks human ALR sulfhydryl oxidase activity | P55789 | purified ALR, DTT oxidation, H2O2 HRP-luminol luminescence | inhibition, % (concentration not given with the values) | hit rate 3.8% among 290,000;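 active means mean and each replicate at 75% or more; inconclusive means only one of the two met; inactive means neither met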;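 further: stock transfer was 7.5 nL into about 7.5 µL; 0% = neutral wells and 100% = wells with inactivated enzyme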
# Calb FLC: C. albicans growth modulation with fluconazole. C. albicans CaCi-2 (fluconazole-resistant clinical isolate) + fluconazole, Alamar Blue growth, 48 h. growth inhibition, % (concentration not given with the values). hit rate 0.57% among 300,000. AID 1979;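 active means most replicates above 75%; inconclusive means exactly half above 75%; inactive means most below 75%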;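 further: all wells also contain fluconazole at 8 µg/ml as a sub-toxic cotreatment; 0% = median of DMSO wells and 100% = median of geldanamycin control wells; wells of about 8 µL received 7.5 nL stock; the first replicate is given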
# Beta2AR agonist: activates human beta-2 adrenergic receptor causing internalization. P07550. Am2.2-beta2AR cells, FAP receptor internalization, flow cytometry; reference of the scale not given here. response, % (test concentration not listed). hit rate 0.43% among 340,000. AID 504454;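 active means response above a set limit, near 3 SD of response in nonfluorescent compounds, cut at about 42% in these data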;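 further: stock transfer was 100 nL into about 11 µL; a reference agonist was the positive control; negative values mostly stem from fluorescent compounds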
# The depositor's hits bear a star; u = inconclusive; x = no result given.
SMILES,Vif TR-FRET,RanGTP-Impb inh,HNF4A DNA FP,LANA-H2B inh,ALR H2O2 inh,Calb FLC,Beta2AR agonist
CCC1=Nc2ccc(Br)cc2C(c2ccccc2)N1CC(=O)OC (centres undefined),1%,3.7,2.1,-4.8,-6,2,1
COc1ccc(/C=C2\CCC/C(=C\C=N\N(C)C)C2=O)cc1,21%,-6.4,13,2.0,-18,33,12
COc1cc(C=C2C(=O)c3ccccc3C2=O)cc(OC)c1,18%,0.4,-1.9,-1.2,x,-3,2
COC(=O)CCC(=O)OC1(C)C(=O)C2=CN(CC3CC3)C(c3ccc(OC)cc3)=CC2=C(Br)C1=O (centres undefined),u,-3.0,-5.4,4.7,x,30,2
Cn1c(SCc2ccc(C#N)cc2)nnc1-c1ccccc1,8%,0.2,0.6,2.5,-11,-1,-30
N/C(CCN1CCCCC1)=N/O,5%,-1.4,-0.5,0.7,-10,-2,8
COC(=O)c1cc(Br)c(=O)n(-c2cc(C)on2)c1,-12%,7.9,0.7,3.4,-2,7,-2
CCN1/C(=C\C=C2\C(=O)N(c3ccccc3)C(=S)N2C)Sc2ccccc21,-3%,0.4,7.6,x,x,-4,-6
COC(C(=O)NCc1ccccc1C)c1ccccc1 (centres undefined),-8%,-0.7,1.2,-0.9,-31,-3,11
Cc1nnn(C23CC4CC(CC(CC(=O)Nc5ccc(C)c(Cl)c5)(C4)C2)C3)n1,-5%,2.9,3.2,1.1,-4,1,6
COC(=O)C(C)(C)ONC(=O)Nc1ccc(C)cc1,x,3.0,4.3,x,x,2,0
CC(NC(=O)Cn1cc(Br)c([N+](=O)[O-])n1)c1ccccc1 (centres undefined),x,-1.1,4.2,7.7,x,8,-1
Cc1noc(C)c1NC(=O)N(C)C[C@H]1Oc2c(NC(=O)Nc3ccc(C(F)(F)F)cc3)cccc2C(=O)N([C@H](C)CO)C[C@@H]1C,x,x,-2.1,5.3,-3,x,-4
Cc1cc(C)c2c(=O)[nH]n(C(C)C)c2n1,13%,2.3,-0.5,0.6,9,-3,7
CCOC(=O)C(Cc1ccc(Cl)cc1Cl)c1ccno1 (centres undefined),x,0.4,1.2,0.3,x,17,0
O=C(c1cccc(F)c1)N1CCN(c2cc(N3CCCCC3)c(F)cc2[N+](=O)[O-])CC1,5%,-0.2,0.7,-11,0,14,-6
CCC(C)(C)NCC(=O)Nc1ccc(OC(F)(F)F)cc1,5%,-2.3,-5.2,-4.3,-17,-17,-6
Cc1ccc(C2c3c(oc4ccccc4c3=O)C(=O)N2c2nncs2)cc1 (centres undefined),24%,8.3,-0.2,-0.5,7,-3,-22
Cc1onc(-c2c(Cl)cccc2Cl)c1C(=O)N1CCCc2ccccc21,-4%,0.0,-0.2,0.0,x,25,0
COc1cc(/C=N/Nc2ccccc2)ccc1O,-2%,-0.8,-0.5,-3.2,99*,-13,-2
S=c1[nH]nc(COc2ccc(Cl)cc2)n1-c1ccccc1,x,-2.2,-1.5,-3.2,x,32,2
CCSC1=NCCN1C(=O)Cc1ccc(-c2ccccc2)cc1,-2%,1.6,4.2,-0.9,-5,-7,7
CCc1ccc(/C=C2\SC(N3CCOCC3)=NC2=O)cc1,-2%,4.4,-1.7,0.2,-9,4,-4
CN(C(=O)c1ccc(NC(=O)Cc2ccc(NC(=O)C3CCCN(C(=O)C4CCCC4)C3)cc2)cc1)C1CCCC1 (centres undefined),-10%,x,-2.1,x,x,x,3
Cc1oc(S(=O)(=O)N2CCCCC2)cc1NC(=O)Nc1ccc(Cl)cc1,7%,2.2,2.2,2.7,13,1,-1
Cc1cc(C)cc(NC(=O)CSc2nnc(NC(=O)C3CC3)s2)c1,0%,-5.5,2.7,-0.7,-3,2,-1
O=S(=O)(NCc1cn2ccsc2n1)c1ccc(Oc2ccccc2)cc1,5%,4.2,-0.7,-0.9,-5,12,-11
Cc1cccc(N2CC(C(=O)NCC3COc4ccccc4O3)CC2=O)c1C (centres undefined),-6%,x,-2.1,-17,-5,x,-5
CCOC(=O)c1cc(C(=O)Nc2sc3c(c2C#N)CCCC3)nn1C,-3%,1.8,0.3,-3.1,5,-8,-7
CC(C)(C)C1CCc2c(sc(NC(=O)c3ccncc3)c2C(N)=O)C1 (centres undefined),0%,1.5,-1.1,-0.9,3,14,-5
COc1ccccc1NC(=S)NC(=O)C(C)(C)C,13%,u,1.7,1.9,-11,5,2
O=C(NCC(=O)N(c1cccnc1)C(C(=O)NC1CCCC1)c1ccco1)c1cccs1 (centres undefined),-1%,-1.5,0.2,0.1,2,6,14
CC(C)CN1CCCC(N2CCN(c3cccc(Cl)c3)CC2)C1 (centres undefined),x,6.3,0.8,3.3,18,9,-6
COc1ccc(CCNC(=O)c2ccc(=O)[nH]c2)cc1,-4%,u,-5.0,-2.8,0,8,3
CCOC(=O)c1ccc(S(=O)(=O)N2CC(=O)Nc3ccccc32)cc1,4%,1.1,1.1,-0.9,99*,-2,-10
CC1(C)Oc2ccc(NC(=O)c3ccco3)cc2O1,-4%,1.3,0.5,3.2,x,-13,0
CCOc1ccc(Oc2ccc(S(=O)(=O)N3CCOCC3)cc2N)cc1,-2%,-1.5,3.1,-2.4,-18,11,1
Cc1n[nH]c(C)c1CCN(C)Cc1cn(C)nc1-c1ccccc1F,u,-6.2,0.6,-8.2,-21,2,2
Cc1ccc(Cl)cc1N1CCN(C(=O)CN(c2ccccc2)S(=O)(=O)N(C)C)CC1,u,-2.5,-4.9,-2.3,-11,-7,-4
COc1ccc2c(CC(=O)N3CCN(S(=O)(=O)c4cccs4)CC3)coc2c1,0%,1.7,2.2,-3.7,-4,9,3
COc1cccc(/C=C2/SC(=O)N(CC(=O)N3CCc4ccccc4C3)C2=O)c1OCC(=O)O,0%,-0.6,-1.0,-3.8,98*,-3,2
COc1cccc(S(=O)(=O)NCc2ccc(C(=O)Nc3ccc(C)cc3)cc2)c1,-1%,0.0,4.6,0.4,-4,-1,3
Cc1nc2ccccc2n1CCC(=O)Nc1cccc(F)c1,-1%,1.0,-0.1,-3.1,-37,2,-5
O=C(NNc1nc(-c2ccccc2)cs1)c1ccccc1,u,1.4,-0.6,-0.8,47,-12,6
C[C@H](CO)N1C[C@H](C)[C@@H](CN(C)S(=O)(=O)c2cn(C)cn2)Oc2ccc(NC(=O)C3CCCCC3)cc2C1=O,-11%,x,0.6,x,x,x,9
COc1ccccc1C1CCN(C(=O)c2ccco2)CC1,-4%,2.7,-5.4,0.1,-4,-14,-1
COc1cccc2cc(-c3csc(CCn4nc(C)cc4C)n3)c(=O)oc12,21%,2.0,0.5,-0.5,98*,50,9
COc1ccc(-n2c(CCC(=O)O)ccc2-c2ccc(F)cc2)c(OC)c1,-4%,-2.6,2.7,-1.2,12,2,2
NS(=O)(=O)c1ccc(NC(=O)CSc2nnc(Cc3cccs3)n2-c2ccccc2)cc1,-2%,1.9,-0.8,-0.4,-4,13,-5
Cc1ccc(NC(=O)CN(C)Cc2cc(=O)n3ccsc3n2)cc1,x,1.9,-4.2,-0.7,2,-3,6
COc1ccc(NC(=O)/C=C/c2ccccc2)c([N+](=O)[O-])c1,x,-4.2,1.8,-2.5,-3,-1,-4
CC(C)CCn1c(O)c(N=NC(=O)c2ccco2)c2ccccc21,-9%,0.5,-1.9,2.8,x,-10,-20
COc1ccc(OCc2cn3c(C)cc(C)nc3n2)cc1,5%,-2.0,-3.4,-3.1,-1,-7,-21
COc1cc(SC)ccc1C(=O)N1CC(C)OC(C)C1 (centres undefined),4%,3.5,-1.7,1.9,-1,-11,-1
CCN(CC)N=Nc1ccc(S(=O)(=O)Nc2c(C)n(C)n(-c3ccccc3)c2=O)cc1,x,0.7,-1.3,2.1,-3,3,7

# Assay outcomes from PubChem.
